Bioassay records deposited in PubChem BioAssay by National Center for Advancing Translational Sciences (NCATS).
D2 agonist = agonists of human D2 dopamine receptor (beta-arrestin). P14416. actives 0.084% (n = 360,000). DiscoveRx PathHunter D2 beta-arrestin, luminescence, 90 min; 100% = 57 uM dopamine signal. activation, % (concentration not given with the values); in the data active = activation above about 40%; inconclusive = about 15% to 40%; inactive = below about 15%; further: compound concentration not given in the record; the text of the record calls up to 30% inactive
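DiscoveRx PathHunter D2 beta-arrestin cells (2,100/well) attached overnight, then compound-stimulated 90 min at 37 C in HBSS/10 mM HEPES/0.1% Tween-20 buffer; beta-galactosidase complementation read by luminescence after 1 h at ambient temperature. Dopamine 57 uM final (EC100) as control.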
PINK1 modulator = changes PINK1 expression. actives 0.2% (n = 410,000). PINK1 immunofluorescence, high-content cytometry, 24 h. Potency, µM (series often up to 76.6 µM), without a hit: at the top dose activation (PINK1 increase), usual class: activators; active = well fitted activation curve with a large enough effect; inconclusive = small, poorly fitted or top-dose-only effect; inactive = flat fitted curve, though single readings scatter; cell line not stated here;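 further: potency means the concentration at half of the fitted maximal effect; % of control where 0% means no effect; nearly all actives have a fitted effect of over 65% in size; a mitochondrial uncoupler was the plate control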
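Readout is PINK1 immunofluorescence, quantified alongside mitochondrial, cell and nuclear markers by laser-scanning microplate cytometry. Cells from a stable line were exposed to compound titrations (5 concentrations) for 24 hours, with CCCP controls.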
CtBP-E1A blk = CtBP/E1A binding inhibition | AID 651724 | activity change, % (concentration not given with the values) | AlphaScreen GST-E1A/His-CtBP binding, 1536-well; stronger effect = lower value; control for the full effect not named in the record | actives 0.49% (n = 340,000); in the data active means activity change below about -65%; inconclusive means about -30% to -65%; inactive means above about -30%; further: on the % scale 0 is the no-effect control and ±100 the full control effect
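Steps: dispense buffer (Tris pH 8.0, NaCl 300 mM, TCEP 1 mM, BSA, Tween 20); add 5X protein mix (GST-E1A, His-CtBP, 125 nM each); pin 23 nL compound; 2 h at 37 °C, dark; add 5X beads (50 ug/mL); 1 h; read.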
TRPML1 ag = human mucolipin-1 channel agonism; actives 0.12% (n = 410,000); AID 624414; activation, % (test concentration not listed); TRPML1-expressing cells, Ca2+ dye fluorescence, FDSS; host cell line not named in the record; reference of the full effect not given here; in the data active = activation above about 50%; inconclusive = about 30% to 50%; inactive = below about 30%; further: 0% is about no effect; the text of the record puts the active cut at 80%
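Cells: TRPML1-DL, 1X Tet inducer, ~16 h at 37 degrees C/5% CO2. Dye: ABD Ca8 no-wash + quencher, 45-90 min RT. Read: 10 s baseline, compound add, 110 s agonist phase; 54-4 EC80 (4uM final), 110 s antagonist phase.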
Six1-Eya2 blk = blocks human Six1 binding to Eya2; Q15475+O00167; AlphaScreen GST-Six1/His-Eya2 binding, biochemical; stronger effect = lower value; control for the full effect not named in the record; activity change, % (test concentration not listed); actives 0.56% (n = 360,000); in the data active = activity change below about -65%; inconclusive = about -30% to -65%; inactive = above about -30%; further: on the % scale 0 is the no-effect control and ±100 the full control effect; compound concentration not given in the record
Target sequence (O00167 whole entry, looked up): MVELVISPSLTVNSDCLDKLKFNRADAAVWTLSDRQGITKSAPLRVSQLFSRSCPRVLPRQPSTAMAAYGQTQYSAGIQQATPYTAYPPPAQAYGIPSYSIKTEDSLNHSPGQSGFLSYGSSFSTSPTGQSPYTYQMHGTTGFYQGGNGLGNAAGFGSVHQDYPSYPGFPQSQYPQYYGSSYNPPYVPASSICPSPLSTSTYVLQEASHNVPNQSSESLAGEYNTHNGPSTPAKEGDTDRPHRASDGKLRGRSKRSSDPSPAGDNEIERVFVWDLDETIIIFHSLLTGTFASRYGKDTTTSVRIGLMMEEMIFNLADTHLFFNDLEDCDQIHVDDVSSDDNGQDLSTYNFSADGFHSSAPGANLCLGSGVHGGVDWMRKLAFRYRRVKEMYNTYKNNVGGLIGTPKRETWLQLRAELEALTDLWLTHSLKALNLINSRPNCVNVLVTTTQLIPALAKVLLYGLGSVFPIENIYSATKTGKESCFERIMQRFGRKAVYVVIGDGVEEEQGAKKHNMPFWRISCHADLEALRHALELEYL
Target sequence (Q15475 whole entry, looked up): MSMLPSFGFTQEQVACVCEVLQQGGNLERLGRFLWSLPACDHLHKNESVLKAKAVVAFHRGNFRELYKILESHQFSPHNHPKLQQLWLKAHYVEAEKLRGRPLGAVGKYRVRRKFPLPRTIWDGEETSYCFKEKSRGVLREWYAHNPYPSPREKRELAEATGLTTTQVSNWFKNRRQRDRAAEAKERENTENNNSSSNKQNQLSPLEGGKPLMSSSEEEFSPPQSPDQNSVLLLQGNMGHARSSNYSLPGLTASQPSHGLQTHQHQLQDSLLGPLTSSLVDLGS
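Six1/Eya2 binding was read as AlphaScreen signal after compounds were pinned into GST-Six1 plus His-tagged Eya2 (5X stock 250/500 nM) in pH 8.0 Tris/NaCl/TCEP buffer, beads added, then incubated 1 h, 37 C, dark.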
D2 potentiator = human D2 receptor positive allosteric modulation. potentiation, % (test concentration not listed). DiscoveRx D2 beta-arrestin cells, luminescence, 90 min; 100% = 57 uM dopamine signal. actives 0.23% (n = 360,000). P14416; active = potentiation of 50% or more; inconclusive = 30% to 50%; inactive = 30% or less;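 further: compound concentration not given in the record; tested on top of an EC20 dose of dopamine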
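D2 cells co-treated with compound plus 50 nM dopamine (EC20) for 90 min at 37 deg C to detect potentiation. Beta-arrestin recruitment was read as enzyme-fragment luminescence after 1 h at ambient temperature. Full response was set by 57 uM dopamine.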
The depositor's hits bear a star; ? = inconclusive; nt = no result given.

Values run as follows: D2 agonist | PINK1 modulator | CtBP-E1A blk | TRPML1 ag | Six1-Eya2 blk | D2 potentiator
COc1ccc(C2CC(c3cccs3)=NN2C(=O)CCCC(=O)O)cc1OC (stereo unspecified)
 : -0.6 | 1.2% | 3 | -0.6 | 8 | 0
COc1ccccc1OCC(=O)Nc1ccc(S(=O)(=O)Nc2onc(C)c2C)cc1
 : 1.5 | 0.8% | 4 | 0.1 | -4 | 0
Cc1ccc(Cn2c(=N)c(C(=O)NCCN3CCOCC3)cc3c(=O)n4ccccc4nc32)cc1
 : 2.0 | 3.6% | nt | 2.7 | 5 | -8
CN1CCN(C(=O)C2Cc3c(-c4ccc5c(c4)OCO5)ccnc3O2)CC1 (stereo unspecified)
 : -7.6 | 0.5% | 7 | -0.1 | 2 | -7
O=C(CN(Cc1ccccc1)C(=O)CNS(=O)(=O)c1ccc(Cl)cc1)NCC1CCCO1 (stereo unspecified)
 : -1.3 | -0.4% | 7 | 0.2 | 7 | -5
Cc1ccc(CNC(=O)c2cncc(Br)c2)cc1
 : -0.9 | -1.3% | -22 | 1.0 | 0 | -5
Cc1oc2c(C)c3oc(=O)c(CC(=O)N[C@@H](CC(C)C)C(=O)N[C@@H](Cc4ccccc4)C(=O)O)c(C)c3cc2c1C
 : 5.6 | 0.2% | 3 | nt | -2 | -6
O=C1NC(=Nc2cccnc2)S/C1=C\c1cccc(F)c1
 : -2.9 | 14% | 3 | 1.4 | 4 | -5
O=C(NCCc1ccc(Cl)cc1)c1cc(S(=O)(=O)N2CCCCC2)c[nH]1
 : 5.5 | 2.0% | 3 | -0.8 | -2 | 4
CCOc1ccc(CNc2ncnc(N)n2)cc1
 : -3.4 | 3.6% | 6 | -0.2 | -1 | -17

The last two records of the part above come first, to join the parts:
Values run as follows: D2 agonist | PINK1 modulator | CtBP-E1A blk | TRPML1 ag | Six1-Eya2 blk | D2 potentiator
O=C(NCCc1ccc(Cl)cc1)c1cc(S(=O)(=O)N2CCCCC2)c[nH]1
 : 5.5 | 2.0% | 3 | -0.8 | -2 | 4
CCOc1ccc(CNc2ncnc(N)n2)cc1
 : -3.4 | 3.6% | 6 | -0.2 | -1 | -17
O=C(CC(=O)N/N=C/c1ccccc1O)NCc1cccnc1
 : 2.9 | -0.3% | -2 | 1.8 | -90* | -9
Fc1ccc(NC(=S)NCc2cccnc2)cc1
 : 0.2 | 2.4% | -2 | 0.0 | 5 | 0
Cc1cc(C(=O)CN2C(=O)NC(C)(c3cccc(Br)c3)C2=O)c(C)n1Cc1ccco1 (stereo unspecified)
 : 4.4 | 1.6% | -13 | -0.5 | -17 | 20
Cc1nc2ccccc2c(=O)n1-c1cccc(NS(=O)(=O)c2ccccc2)c1
 : -6.5 | 1.8% | 2 | 0.9 | -4 | -7
Cc1nnc(SCC(=O)NC2CCC(C)CC2)s1 (stereo unspecified)
 : -0.2 | -1.9% | 9 | -0.5 | -1 | -3
Cc1ccc(C)c(NC(=O)C(OC(=O)c2cc[n+]([O-])cc2)c2ccccc2)c1 (stereo unspecified)
 : -2.0 | 1.4% | 8 | 0.1 | 3 | 14
COCC(C)NCC(=O)NC(C)CCc1ccccc1 (stereo unspecified)
 : -3.5 | 1.3% | 2 | 0.4 | 11 | -10
Cc1ccc(OCCn2cncn2)c([N+](=O)[O-])c1
 : -1.8 | 0.9% | nt | -1.1 | -6 | -5
Cc1c(CC(=O)N2CCC(C(N)=O)CC2)c(=O)oc2cc3c(cc12)CCC1(CCCCC1)O3
 : 3.1 | 0.7% | 5 | nt | 6 | 9
COc1ccc2c(CN3CCN(c4ccc(Cl)c(Cl)c4)CC3)cc(=O)oc2c1
 : -3.3 | 1.3% | -3 | -0.5 | 5 | -14
CCN1C(=O)/C(=C/c2cn(-c3ccccc3)nc2-c2cccnc2)SC1=S
 : -0.4 | ? | -3 | 0.9 | -6 | 2
COc1ccc(OCCCC(=O)Nc2ncn[nH]2)cc1
 : 0.6 | 0.4% | 1 | 1.2 | -10 | 4
COCCCNC(=O)c1cn(Cc2c(F)cccc2Cl)nn1
 : -1.1 | 2.1% | 8 | -0.1 | 7 | 5
O=c1c2[nH]c3ccccc3c2ncn1CCC1=CCCCC1
 : -1.9 | 2.2% | 0 | 0.3 | 4 | -2
CC1(C(=O)NS(=O)(=O)c2cccc(C#N)c2)CCN1C(=O)Cc1ccccc1Cl (stereo unspecified)
 : -4.2 | -0.7% | 8 | -0.3 | 4 | -2
FC(F)(F)c1ccc(/C=N/N2CCN(Cc3ccccc3)CC2)cc1
 : -7.4 | ? | -19 | -0.9 | ? | -5
COCCCC1CCN(Cc2nc(Cc3ccccc3Cl)no2)CC1
 : 4.0 | 1.5% | 4 | -0.2 | 3 | -5
O=C(O)C1SCCN1S(=O)(=O)c1ccc(N=NN2CCOCC2)cc1 (stereo unspecified)
 : -1.5 | -1.7% | 0 | 1.1 | -1 | -2
CC1CCN(C(=O)c2[nH]cnc2C(=O)NCC(=O)OCc2ccccc2)CC1
 : 0.7 | -0.7% | 0 | -0.1 | -3 | -4
O=C(Nc1nc2ccc([N+](=O)[O-])cc2s1)c1c(F)cccc1F
 : -1.8 | 0.4% | -4 | 0.7 | -14 | -19

No new results follow: an excerpt of the list.
Values run as follows: D2 agonist | PINK1 modulator | CtBP-E1A blk | TRPML1 ag | Six1-Eya2 blk | D2 potentiator
COc1ccc2c(CN3CCN(c4ccc(Cl)c(Cl)c4)CC3)cc(=O)oc2c1
 : -3.3 | 1.3% | -3 | -0.5 | 5 | -14
CCN1C(=O)/C(=C/c2cn(-c3ccccc3)nc2-c2cccnc2)SC1=S
 : -0.4 | ? | -3 | 0.9 | -6 | 2
COc1ccc(OCCCC(=O)Nc2ncn[nH]2)cc1
 : 0.6 | 0.4% | 1 | 1.2 | -10 | 4
COCCCNC(=O)c1cn(Cc2c(F)cccc2Cl)nn1
 : -1.1 | 2.1% | 8 | -0.1 | 7 | 5
O=c1c2[nH]c3ccccc3c2ncn1CCC1=CCCCC1
 : -1.9 | 2.2% | 0 | 0.3 | 4 | -2
CC1(C(=O)NS(=O)(=O)c2cccc(C#N)c2)CCN1C(=O)Cc1ccccc1Cl (stereo unspecified)
 : -4.2 | -0.7% | 8 | -0.3 | 4 | -2
FC(F)(F)c1ccc(/C=N/N2CCN(Cc3ccccc3)CC2)cc1
 : -7.4 | ? | -19 | -0.9 | ? | -5
COCCCC1CCN(Cc2nc(Cc3ccccc3Cl)no2)CC1
 : 4.0 | 1.5% | 4 | -0.2 | 3 | -5

Further entries
Values run as follows: D2 agonist | PINK1 modulator | CtBP-E1A blk | TRPML1 ag | Six1-Eya2 blk | D2 potentiator
O=c1[nH][nH]c(C(F)(F)F)c1C=NCc1ccc(Cl)cc1
 : -4.3 | 1.3% | 2 | 0.0 | 0 | -11
CS(=O)(=O)N1CCCCC1c1cc(C(=O)Nc2cccc3c2CCCC3)no1 (stereo unspecified)
 : -4.7 | 0.2% | 1 | -1.0 | 1 | -7
COc1ccc(F)cc1CN1CCN(C(=O)CCC(=O)Nc2nnc(C3CCCCC3)s2)CC1
 : -3.3 | -2.1% | 10 | 0.6 | -2 | -19
Cc1cccc(NC(=O)C(Cc2ccccc2)c2nn[nH]n2)c1C (stereo unspecified)
 : 2.4 | -0.1% | -1 | -0.4 | 3 | -3
CCOc1ccc(NC(=O)CCC(=O)NNC(=O)c2ccc(Br)o2)cc1
 : -8.2 | 3.0% | 5 | -1.7 | -4 | -1
CSCCC(c1nnnn1C1CCCC1)N1CCN(C/C=C/c2ccccc2)CC1 (stereo unspecified)
 : -2.6 | 6.4% | -13 | -0.3 | -20 | -13
CN(Cc1ccccc1)C(=O)c1[nH]cnc1C(=O)NCCCCCNC(=O)OC(C)(C)C
 : -1.8 | 0.2% | nt | -0.3 | -5 | -18
Cc1ccc(S(=O)(=O)N2C[C@@H](C)[C@]3(C2)[C@H](O)[C@H](OC(=O)NCc2ccccc2)C[C@H]2C(=O)N(c4ccccc4)C(=O)[C@H]23)cc1
 : -3.4 | 1.6% | -1 | 0.0 | -1 | 1
Cc1ccc(Nc2c(-c3ccccn3)nc3cccc(C)n23)cc1
 : -14 | ? | -98* | nt | -88* | -46
CC(=O)Nc1ccc(S(=O)(=O)N2CCN(CCCOc3cc(C)ccc3C)CC2)cc1
 : 4.5 | ? | 7 | -0.1 | -16 | -9
CCCCNC(=O)C(NC(=O)c1cccc2ccccc12)C(=O)c1ccccc1 (stereo unspecified)
 : -6.5 | 9.2% | -6 | -0.6 | 14 | -8
CC(=O)Oc1ccc(C(=O)O)c(OC(C)=O)c1
 : -2.9 | -0.9% | 0 | 0.3 | 12 | -11
O=C(CN1CCC(NC(=O)C2CC2)CC1)Nc1ccccc1[N+](=O)[O-]
 : 0.9 | -1.1% | -3 | 0.3 | 1 | -1
CCOc1cc(C(=O)N/N=C\c2cn(CC)nc2C)cc(OCC)c1OCC
 : -1.9 | 1.0% | 2 | -0.7 | -1 | -2
Cc1cc(NC(=O)C(C)C)ncc1NC(=O)c1cccc(F)c1
 : -3.9 | 1.3% | 5 | -0.6 | 0 | -13
COc1cccc(CNc2nccs2)c1O
 : 2.4 | 1.0% | -1 | -0.4 | 1 | -6
O=C(CN1CCOCC1)Nc1scc(-c2ccccc2)c1C(=O)N1CCOCC1
 : -0.7 | -0.3% | 2 | 0.3 | 5 | 2
COc1ccc(Oc2ccc(/C=C/C(=O)c3ccc(O)cc3)cc2[N+](=O)[O-])cc1
 : -6.6 | -1.7% | 1 | 2.6 | -5 | -13
CC1=C(C(=O)OC(C)C)C(c2cccc([N+](=O)[O-])c2)n2c(cc(=O)[nH]c2=S)N1 (stereo unspecified)
 : -12 | 4.1% | 2 | -0.9 | -2 | -20
O=C(Nc1ccc(Nc2ccncc2)cc1)c1ccc(Nc2ccnc3ccc([N+](=O)[O-])cc23)cc1[N+](=O)[O-]
 : -4.2 | 0.7% | nt | 3.2 | 1 | -2
Cc1c(N(C)S(=O)(=O)c2cc(C(=O)Nc3ccccn3)ccc2Cl)c(=O)n(-c2ccccc2)n1C
 : -4.6 | 0.6% | 2 | -1.2 | -1 | -10
COc1ccc(C(=O)N2CCc3cc4c(cc3C2C)OCCCO4)cc1 (stereo unspecified)
 : -3.9 | 2.2% | 0 | nt | 0 | -32
Cc1cc(=O)[nH]c(Sc2c(-c3ccccc3)c3ccccc3[nH]c2=O)n1
 : -2.3 | -2.9% | 4 | -0.8 | -1 | -8
N#CCC(=O)Nc1ccc(C(=O)OCC(=O)Nc2sc3c(c2C#N)CCCC3)cc1
 : -1.9 | 4.0% | -21 | 1.1 | -1 | 17
O=C(Nc1ccccc1Cl)c1cc[n+]([O-])cc1
 : -1.6 | -0.2% | 16 | 0.0 | 2 | -1
NC(=O)c1cc([N+](=O)[O-])cc2c1C=Cc1ccccc1O2
 : 1.9 | -0.3% | 9 | -0.5 | 8 | -8
Cc1ccc(-n2nnnc2CNC(=O)C(=O)c2c[nH]c3ccccc23)cc1C
 : 1.2 | 2.0% | 6 | -0.7 | -10 | 4
